Source: PubChem BioAssay (NMMLSC)
Autofluor counter: flagged as autofluorescent in microsphere protease counterscreen; compound autofluorescence counterscreen, microsphere flow cytometry; active compounds read high; fluorescence intensity (concentration not given with the values); 3.1% of 360,000 active; AID 624483;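 active = at least 3 SD above the mean of all compounds, about 16000 in these data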;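 also: 100 nL of 1 mM stock went into each well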
* marks the source's active call; other numbers are inactive results.

smiles,Autofluor counter
COc1ccc(OC)c(C2=CC(=O)C[C@H](c3ccc(F)cc3)C2)c1,3616
CCOC(=O)C1CCCN(C(=O)COc2ccc(C(C)(C)C)cc2)CC1 (stereo unspecified),2898
C(=C\c1ccccc1)/CN1CCN(C(c2cc3ccccc3o2)c2nnnn2-c2ccc3c(c2)OCCO3)CC1 (stereo unspecified),4651
C[C@H](CO)N1C[C@H](C)[C@H](CN(C)S(=O)(=O)c2ccccc2F)OCc2cnnn2CCCC1=O,3841
O=C(Nc1cccc2ccccc12)c1csc(COCCO)n1,3978
Nc1cc(=O)nc2cn[nH]n12,3812
CC(C)CNC(=O)C1(C)CCCCCN1Cc1ccccc1-c1ccccc1 (stereo unspecified),2933
N#Cc1ccccc1OCC(=O)N1CC(=O)Nc2ccccc21,4019
C[C@@H]1CCCCO[C@H](CN(C)C)[C@H](C)CN([C@@H](C)CO)C(=O)c2cc(NC(=O)Nc3ccc(C(F)(F)F)cc3)ccc2O1,3505
CCCOc1cccn2c(N(C=O)Cc3ccc(OC)cc3)c(CC)nc12,3996
CCNC(=O)C1(C)CCCN1C(=O)c1ccc(F)c(Cl)c1 (stereo unspecified),3314
CC1(Oc2ccc(CC#N)cc2)CCN(Cc2ccccc2OC(F)F)C1 (stereo unspecified),3930

Laid out differently: results already given
CC(C)CNC(=O)C1(C)CCCCCN1Cc1ccccc1-c1ccccc1 (stereo unspecified)
  Autofluor counter = 2933

N#Cc1ccccc1OCC(=O)N1CC(=O)Nc2ccccc21
  Autofluor counter = 4019

C[C@@H]1CCCCO[C@H](CN(C)C)[C@H](C)CN([C@@H](C)CO)C(=O)c2cc(NC(=O)Nc3ccc(C(F)(F)F)cc3)ccc2O1
  Autofluor counter = 3505

Gathered by group, the entries above containing an aryl methoxy group.
smiles,Autofluor counter
COc1ccc(OC)c(C2=CC(=O)C[C@H](c3ccc(F)cc3)C2)c1,3616
CCCOc1cccn2c(N(C=O)Cc3ccc(OC)cc3)c(CC)nc12,3996

(list continues)
smiles,Autofluor counter
CC(=O)Nc1cc(-c2cccc(C(=O)NCCN(C)C)c2)cn2c(-c3cccc(C(F)(F)F)c3)cnc12,3795
Cc1ccc(C)c(NCCCCC(=O)O)c1,5410
COc1ccc(NC(=O)c2cccc3ccccc23)cc1OC,3765
COc1ccc(CN(C)C[C@H]2OCCCC[C@H](C)Oc3ccc(NC(=O)CCC(F)(F)F)cc3C(=O)N([C@@H](C)CO)C[C@@H]2C)cc1,3011
CC(=O)Oc1ccc(CN2C(=O)C(CCc3ccccc3)ON=C2c2cnccn2)cc1 (stereo unspecified),5613
CCc1ncn(CCc2ccccc2OC)c1C(C)C,7030
Cc1cc(C)cc(Cn2c3ccc(NC(=O)NCCc4cccs4)cc3c(=O)n2C)c1,3925
CCOC(=O)C1(C)CCCN(C(=O)c2c(-c3ccccc3)noc2C)C1 (stereo unspecified),4126
N#CC1c2ccccc2C=CN1C(=O)c1ccc(N(CCCl)CCCl)cc1 (stereo unspecified),2901
COC(=O)c1cc(Cl)ccc1NCC(N)c1ccccc1 (stereo unspecified),6037
CC[C@H](C)C1OC(=O)[C@@H](C)[C@@H](CC)NC(=O)[C@H](C)N(C)C(=O)C(C)(C)C(=O)C(C)NC(=O)[C@H](Cc2ccc(OC)cc2)N(C)C(=O)[C@H](C(C)C)N(C)C(=O)CNC(=O)[C@H](CC(C)C)N(C)C(=O)CNC1=O (stereo partly specified),5737
CCCN(C)C1CN(Cc2cn(Cc3ccc(F)cc3)nn2)S(=O)(=O)C1 (stereo unspecified),6449
C[C@H](CO)N1C[C@H](C)[C@H](CN(C)C(=O)Nc2ccc(N3CCN(C)CC3)cc2)OCc2cnnn2CCCC1=O,3576
CC(C)N1CCC(C)(C(=O)Nc2ccc(Cl)c(Cl)c2)C1 (stereo unspecified),4064
CCC/C=C/c1ccc(CN2C(C(C)C)C(=O)N(Cc3cn(CCC4OCCO4)nn3)CCS2(=O)=O)cc1 (stereo unspecified),3682
COc1ccc(-n2nnnc2C(c2cccc3ccccc23)N2CCN(C/C=C/c3ccccc3)CC2)cc1 (stereo unspecified),5381
Cc1cc2nc(-c3cccc(Br)c3)c(CC(C)(C)C)n2c(C)c1Br,5475
CCCNC(=O)c1cc(C2CCCCN2S(=O)(=O)c2ccc(OC)cc2)on1 (stereo unspecified),3838
Cc1ccc([C@@H]2C[C@H]3[C@@H](CN2S(=O)(=O)c2ccc(Cl)cc2)C(=O)C[C@@H](c2ccccc2F)N3S(=O)(=O)c2ccc(C)cc2)cc1,4023
O=S1(=O)CC(N2CCCCC2)CN1Cc1cn(Cc2cccc(Cl)c2)nn1 (stereo unspecified),5035
CS(=O)(=O)c1ccc(C2=C(CNC(=O)c3cccs3)[C@H]3CC[C@@H](C2)N3Cc2ccco2)cc1,3001
C=CCN1C(=O)C(=Cc2ccc3c(c2)CCC3)SC1=S,4090
CC(C)CN(C(=O)Cn1nnc(-c2ccc(Cl)cc2)n1)C1CCS(=O)(=O)C1 (stereo unspecified),4014
CC(C)CNc1ncnc2c1ncn2[C@H]1CN(CCN2CCOCC2)C[C@@H](CO)O1,3961
Cc1ccc(C(=O)NCC(=O)OCc2nc3ccsc3c(=O)[nH]2)cc1C,2847
CC(C)C[C@H]1CNC(=S)N1C[C@H]1CCCN1C[C@H](Cc1ccccc1)N1C[C@H](Cc2ccc(O)cc2)N(CC2CCCCC2)C1=S,6354
O=C1NC(Cc2ccccc2)c2nc3ccc(F)cc3c(=O)n2-c2cc3ccccc3cc21 (stereo unspecified),3037
C(=NNc1nnn(Cc2ccccc2)n1)c1ccccc1,4031
O=C1Nc2ccccc2N(C(=O)c2ccc(-c3ccccc3)cc2)C1c1nc2ccccc2[nH]1 (stereo unspecified),4963
COC(=O)c1ccc2nc(-c3ccc(Cl)cc3)c(Cc3ccccc3OC)n2c1,7313
Cc1cccc(C(=O)N2CCC(=O)N([C@H](COCc3cccc(C(F)(F)F)c3)Cc3ccccc3)CC2)c1,5159
CC(C)c1ccc(NC(=O)C2(C)Cc3c(-c4ccccc4)ccnc3O2)cc1 (stereo unspecified),3375
COc1ccc(C(c2nnnn2C2CCCCC2)N2CCC3(CC2)C(=O)NCN3c2ccccc2)cc1 (stereo unspecified),6022
Cc1cc(OCC(=O)OCC(=O)NC2CCS(=O)(=O)C2)ccc1Cl (stereo unspecified),3521
CC(=O)Nc1cccc(-c2ccnc3c2CC(C)(C(=O)NC(C)C)O3)c1 (stereo unspecified),3085
CCc1nc2ccc(C(=O)NCc3ccc(OC)cc3)cn2c1N(C)CCC(C)C,4477

A few values from above.
O=C1NC(Cc2ccccc2)c2nc3ccc(F)cc3c(=O)n2-c2cc3ccccc3cc21 (stereo unspecified) in Autofluor counter: 3037
CCc1nc2ccc(C(=O)NCc3ccc(OC)cc3)cn2c1N(C)CCC(C)C in Autofluor counter: 4477
C(=NNc1nnn(Cc2ccccc2)n1)c1ccccc1 in Autofluor counter: 4031
COc1ccc(C(c2nnnn2C2CCCCC2)N2CCC3(CC2)C(=O)NCN3c2ccccc2)cc1 (stereo unspecified) in Autofluor counter: 6022
CC(C)c1ccc(NC(=O)C2(C)Cc3c(-c4ccccc4)ccnc3O2)cc1 (stereo unspecified) in Autofluor counter: 3375
O=C1Nc2ccccc2N(C(=O)c2ccc(-c3ccccc3)cc2)C1c1nc2ccccc2[nH]1 (stereo unspecified) in Autofluor counter: 4963

Later entries.
smiles,Autofluor counter
COc1ccc(-c2csc(C(C)(O)c3ccc(OC)cc3)n2)cc1 (stereo unspecified),3856
Nc1nc(N)c2cc(S(=O)(=O)c3cccc(C(F)(F)F)c3)ccc2n1,3441
CCCCCCN1C[C@H](n2cc(C3CC3)nn2)[C@@H](O)C[C@@H]1c1ccc(C)cc1,4416
CCOC(=O)C1(C)CCCN1C(=O)c1ccccc1OC (stereo unspecified),2849
Cc1cc(C)n2c(Nc3c(C)cccc3C)c(-c3cccnc3)nc2n1,7111
CCOc1cccc(-c2cnc3cccnn23)c1,2886
CN1CCN(C(=O)C2Cc3c(-c4ccc5c(c4)OCO5)ccnc3O2)CC1 (stereo unspecified),3706
COc1cccc(-c2ccc(C3=CC(=O)CC(C)(C)C3=O)cc2)c1OC,3744
CC1(c2nnnn2Cc2ccccc2)CCC(=O)N1CCc1c[nH]c2ccccc12 (stereo unspecified),6242
COc1ccc(C(=O)Nc2nc(OCC(F)(F)F)cnc2/C=C\c2ccccc2)c(OC)c1,4287
CCOC(=O)c1cc(OC(C)=O)c2ccc(OC)c(OC)c2c1,3940
CCCCS(=O)(=O)NC(=O)C1(C)CCN1C(=O)C/C=C/c1ccccc1 (stereo unspecified),3499
CN1OC[C@@H]2CN(C(=O)Nc3ccccc3)[C@H](c3ccc(N4CCCCC4)cc3)C[C@@H]21,7356
CC1(C(=O)Nc2ccc(F)c(Cl)c2)Cc2c(-c3ccccc3)ccnc2O1 (stereo unspecified),3227
O=C1NCN(c2ccccc2)C12CCN(C(c1ccnc3ccccc13)c1nnnn1C1CCCCC1)CC2 (stereo unspecified),5959
COc1ccccc1-c1cnc(C(O)c2ccc(F)c(C)c2)[nH]1 (stereo unspecified),4194
CCc1nc2ccc(C(=O)NCCCn3ccnc3)cn2c1N(C)Cc1ccc(N(C)C)cc1,3660
CC(=O)NCCNc1nc(NCc2ccccc2)nc2ccsc12,2898
C[C@@H]1CN([C@H](C)CO)C(=O)c2cc(Br)cnc2O[C@@H]1CN(C)C(=O)NC1CCCC1,3660
CCCCN1C[C@H](Cc2ccccc2)[C@@H](CC(=O)NC)C1=O,3762
CC1CCN(S(=O)(=O)N2CCC(C(=O)NCc3ccc(F)cc3Cl)CC2)CC1,3752
COc1ccc(CC(N)c2csc(NC(=O)Nc3ccc(F)cc3)n2)cc1 (stereo unspecified),3526
Cc1ccc([C@H]2C[C@H](O)[C@@H](n3cc(-c4ccc(F)cc4)nn3)CN2C(=O)c2cccs2)cc1,3453
NC(Cc1ccc(Cl)cc1)c1csc(Nc2ccc(C(F)(F)F)cn2)n1 (stereo unspecified),3388
Cc1ccc([C@H]2C[C@H](O)[C@@H](n3cc(-c4ccc(F)cc4)nn3)CN2Cc2cccs2)cc1,3005
O=C(OCc1ccccc1)N1CCC2CC1c1cc(N3CCN(C(=S)NCCc4ccccc4)CC3)ccc12 (stereo unspecified),6146
COc1cccc(-c2cnc(C(O)c3ccc(F)c(C)c3)[nH]2)c1 (stereo unspecified),2946
COc1ccccc1NC(=O)N(C)C[C@H]1OCc2cnnn2CCCC(=O)N([C@@H](C)CO)C[C@H]1C,3914
CCCC(=O)N1CCCC1(C)C(=O)Nc1ccc(-n2cccc2)cc1 (stereo unspecified),3723
Cc1ccc(NC(=O)CCc2ccccc2)cc1C,4109
C[C@H](CO)N1C[C@H](C)[C@H](CN(C)C(=O)NC2CCCCC2)Oc2ncc(Br)cc2C1=O,3600
COc1cc(C(=O)N2CCN(C3=NS(=O)(=O)c4ccccc43)CC2)cc(OC)c1OC,3557
CCCCNC(=O)c1nc(C2CCN(S(=O)(=O)c3cccc(C(F)(F)F)c3)CC2)oc1-c1ccccc1,5723
COCc1c(C(=O)NCC(c2ccco2)N2CCCC2)oc2ccccc12 (stereo unspecified),5592
CC1=C(C(=O)N2CCOCC2)CC(CC(=O)NCc2ccco2)C(=O)N1CCC1=CCCCC1 (stereo unspecified),3613
O=C(CCCCC(=O)NN=Cc1ccc2c(c1)CCC2)NN=Cc1ccc2c(c1)CCC2,3781
CCc1nc2c(OCc3cc(Cl)cc(Cl)c3)cccn2c1N(C)C(=O)c1ccc(OC)cc1,3851
COc1cccc(-c2cc(NC(C)=O)c3ncc(-c4ccc(OC)c(OC)c4)n3c2)c1,3418
CC(=O)c1cccc(-c2cnc3c(NC=O)cc(-c4ccc(N(C)C)cc4)cn23)c1,3259
Cc1ccc(-c2nc3ccc(Br)cn3c2Cc2cccc(F)c2)cc1,5204
C[C@H](CO)N1C[C@H](C)[C@@H](CN(C)S(=O)(=O)c2ccc(-c3ccccc3)cc2)OCc2cn(nn2)CCCC1=O,3819
CCCCCNc1ncnc2c(C)[nH]nc12,5501
CC1=CC(=O)C2(C)C(C)=C(C)C12C (stereo unspecified),3449
OCCCNc1ncnc2c1ncn2[C@H]1CN(Cc2ccncc2)C[C@@H](CO)O1,4072
CCc1nc2ccc(C(=O)NCCOc3ccc(OC)cc3)cn2c1N(C)Cc1ccc(OC)cc1,3644
Cc1ccc(C(=O)OCC(=O)Nc2cccc(S(=O)(=O)N3CCCCC3)c2)s1,3376
Cc1ccc(F)c(C(=O)N2CCCC(C)(C(=O)NS(=O)(=O)C3CC3)C2)c1F (stereo unspecified),3108
COCCNC(=O)C1CCCN(C(=O)c2csc3ccccc23)CC1 (stereo unspecified),2813
CNC(=O)C[C@H]1C(=O)N(c2ccccc2)C[C@@H]1C,3691
CCN(CC(=O)NCc1cccs1)C(=O)/C=C/c1ccc(F)cc1,3762
C[C@@H]1CN([C@H](C)CO)C(=O)c2cc(-c3ccc(C(=O)N(C)C)cc3)cnc2O[C@@H]1CN(C)C(=O)c1cccnc1,3818
Cc1ccc(Cc2c(-c3ccccc3)nc3c4ccccc4ccn23)cc1,5919
CC1(C)N=C(N)N=C(N)N1c1ccc(CCCCc2ccccc2)cc1,3619
Cc1ccc(CN(C)C[C@@H]2OCc3cnnn3CCCC(=O)N([C@H](C)CO)C[C@H]2C)cc1,3136
O=C(NCc1ccccc1)C1c2ccccc2OCC(=O)N1CC(F)(F)F (stereo unspecified),5745
CCCCCC(=O)N1C[C@H](n2cc(COC(=O)c3ccccc3)nn2)[C@@H](O)C[C@@H]1c1ccc(C)cc1,3730
CC#CC(=O)N1CCC(n2nccc2NC(=O)CCc2ccccc2)CC1,3915
COc1cc(C(=O)N2CCCCC2c2cc(C(=O)Nc3ccccc3)no2)cc(OC)c1C (stereo unspecified),3589
C[C@@H]1CN([C@H](C)CO)C(=O)c2cc(Br)cnc2O[C@@H]1CN(C)C(=O)Nc1cccc(F)c1,2905

This is a subset; count on the stated rates, not on these rows.
